E coli growth: inhibitors of Escherichia coli growth; OD600, 23 h; hits give low values; 330,000 tested, 0.21% active; OD600 absorbance (no concentration beside the values); AID 1053175;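 active = OD600 absorbance below the run mean of sample wells minus 3.6 SD, in any replicate, cut at about 0.56 in these data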;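 note: stock transfer was 300 nL into about 60 µL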
B2AR ag: agonists of human beta-2 adrenergic receptor inducing internalization | P07550 | Am2.2-beta2AR cells, FAP receptor internalization, flow cytometry; reference of the scale not given here | response, % (concentration not given with the values) | 340,000 tested, 0.43% active;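 active = response above a set limit, near 3 SD of response in nonfluorescent compounds, cut at about 42% in these data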;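 note: stock transfer was 100 nL into about 11 µL; a reference agonist was the positive control; negative values mostly stem from fluorescent compounds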
rRNA inh HTS: selective bacterial rRNA inhibition in E. coli | GFP signal change (wild-type ribosome), % (test concentration not listed) | E. coli WT GFP vs humanized-ribosome RFP mutants, fluorescence, 24 h; hits give low values; DMSO median 0, no signal -100 | 350,000 tested, 1.6% active | AID 720706;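 active = significant combined selectivity score with lowered wild-type GFP, culture density cut under 30%, mutant RFP and density less affected; inactive = any of these conditions unmet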; note: one replicate is shown; some compounds called inactive have numbers as strong as hits
UCH37 DUB inh: human UCH37 deubiquitinating enzyme inhibition; 330,000 tested, 0.33% active; purified proteasome/UCH37, Ub-AMC cleavage fluorescence; Q9Y5K5; inhibition, % (no concentration beside the values);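 active = mean of two replicates above 20%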;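 note: 0% = compound-free wells with enzyme and 100% = wells lacking proteasome; stock transfer was 100 nL into about 20 µL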
Target sequence (Q9Y5K5 whole entry, looked up): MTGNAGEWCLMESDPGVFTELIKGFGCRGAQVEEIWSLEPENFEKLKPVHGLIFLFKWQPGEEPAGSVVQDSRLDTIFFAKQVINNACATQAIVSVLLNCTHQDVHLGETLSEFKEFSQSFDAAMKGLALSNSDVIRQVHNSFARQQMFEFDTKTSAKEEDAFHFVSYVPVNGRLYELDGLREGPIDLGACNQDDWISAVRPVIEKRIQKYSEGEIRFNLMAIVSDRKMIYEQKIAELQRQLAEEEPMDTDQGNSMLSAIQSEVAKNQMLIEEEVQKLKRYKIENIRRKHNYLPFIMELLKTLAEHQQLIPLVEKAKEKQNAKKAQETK
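Signal – fluorescence, ex 355 nm, em 460 nm · System – Proteasome-bound UCH37 · Input – 0.15 nM proteasome as dispensed · Timing – 30 min preincubation with enzyme, 25 min cleavage at room temperature · Read-out basis – percent inhibition of cleavage signal versus uninhibited and no-proteasome wells · Medium – Tris-HCl pH 7.4 with ATP-MgCl2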
HNF4A DNA FP: change in binding of human HNF4 alpha to DNA; activity change, % at 10 µM; P41235; 360,000 tested, 0.3% active; HNF4a-FITC DNA binding, fluorescence polarization, 1 h; AID 1224865; in the data active = activity change above about 30%, passing the limit was not always enough;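 note: controls were the assay level and a saturating level of protein; the project sought stronger binding though the title names inhibitors; some compounds called inactive have numbers as strong as hits; positive values seem to mean higher polarization but the record does not say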
ALR H2O2 inh: inhibitors of human sulfhydryl oxidase ALR; purified ALR, DTT oxidation, H2O2 HRP-luminol luminescence; inhibition, % (no concentration beside the values); 290,000 tested, 3.8% active; AID 485317;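 active = mean and each replicate at 75% or more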;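 note: stock transfer was 7.5 nL into about 7.5 µL; 0% = neutral wells and 100% = wells with inactivated enzyme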
Target sequence (P55789 whole entry, looked up): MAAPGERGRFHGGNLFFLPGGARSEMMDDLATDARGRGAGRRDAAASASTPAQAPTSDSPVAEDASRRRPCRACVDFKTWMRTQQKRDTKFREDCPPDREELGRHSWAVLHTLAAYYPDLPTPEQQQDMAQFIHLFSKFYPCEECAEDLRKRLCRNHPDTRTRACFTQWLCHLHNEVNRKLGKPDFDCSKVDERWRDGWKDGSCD
FGF22 binding: FGF22 (human) thermal shift binding; AID 651658; recombinant FGF22 thermal shift, SYPRO orange fluorescence; percent of sucrose octasulfate shift, DMSO zero; 340,000 tested, 1.5% active; Q9HCT0; calls only at 9.99 µM;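 active = melting point raised past a set limit in the mean and every replicate; three in four hits are not shown here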
Target sequence (Q9HCT0 whole entry, looked up): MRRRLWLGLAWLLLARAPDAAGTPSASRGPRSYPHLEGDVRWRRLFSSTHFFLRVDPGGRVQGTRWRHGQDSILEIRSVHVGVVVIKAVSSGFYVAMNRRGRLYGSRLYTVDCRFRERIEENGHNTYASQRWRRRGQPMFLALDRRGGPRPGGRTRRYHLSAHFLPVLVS
rRNA inh HTS OD600: second read-out of rRNA inh HTS, no call of its own (marks repeat the call); OD600 change, %; measured here: OD600 growth;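 optical density of the mix in the first replicate; 0 = DMSO median and -100 = no signal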
rRNA inh HTS RFP: further read-out of rRNA inh HTS, marked with its call; RFP signal change, %; measured here: RFP humanized mutant strains;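 first replicate; 0 = DMSO median and -100 = no signal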
* marks the source's active call; other numbers are inactive results; i = inactive; / = not tested or not shown; + = active, no number; & = joins results of further samples. This is a subset, so the mix of outcomes need not match the whole.

Every second line gives: E coli growth, B2AR ag, rRNA inh HTS, rRNA inh HTS OD600, rRNA inh HTS RFP, UCH37 DUB inh, HNF4A DNA FP, ALR H2O2 inh, FGF22 binding
Cc1ccc(C)c(NC(=S)NCCN(C2CCCCC2)C2CCCC2)c1
    /, 8.5, 10.3, -2.7, 6.6, /, 4.4, -0.2, i
O=C(Nc1cccc(Br)c1)c1cc2ccccc2o1
    0.656, 6.9, -36.2, -47.4, -1.6, 1.5, 0.7, 0.8, i
O=C(COC(=O)c1ccc(Cl)nc1)Nc1ccc2c(c1)OCO2
    0.714, 4.0, /, /, /, 0.8, -2.5, 1.3, i
CC(=O)N1CCN(c2ccc(NC(=O)c3ccc(C(C)(C)C)cc3)cc2)CC1
    0.696, 6.5, -10.5, -2.0, -6.4, 1.2, -4.0, 4.2, i
O=C(NCCN1C(=O)S/C(=C\c2ccc(Cl)c(Cl)c2)C1=O)c1cnccn1
    0.666, -3.9, /, /, /, 0.4, 2.7, /, /
Cc1cccc(N(CC(=O)NC2CCCC2)C(=O)CS(=O)CC(=O)Nc2ccc3c(c2)OCO3)c1C (stereo not drawn)
    0.707, 2.1, /, /, /, -0.7, 0.3, 17.9, /
O=C(CC(=O)Nc1cc(Cl)ccc1Cl)Nc1cc(Cl)ccc1Cl
    0.707, 2.5, /, /, /, 2.5, 5.4, /, i
Cc1nc(N2CCOCC2)sc1C(=O)NN
    0.699, 1.4, 2.8, 3.4, -2.1, 2.9, 3.7, -96.0, i
CCN1CCN(CCCNC(=O)c2ccccc2NC(=O)C2=C(C)OCCS2)CC1
    0.683, 0.2, 6.6, 9.5, -2.5, 5.4, 1.4, -20.9, i
O=C(N/N=C/c1ccccn1)c1ccc2nc[nH]c2c1
    /, -0.4, /, /, /, /, 3.0, /, i
COc1ccc(-c2cc(C)no2)cc1S(=O)(=O)N1CCOc2ccc(Cl)cc21
    0.712, 46.4*, 7.6, 4.7, 0.2, 2.5, 7.1, -1.8, i
COc1ccc(C2C(C#N)=C(SCC(=O)Nc3ccc(C)cc3)NC3=C2C(=O)CC(C)(C)C3)cc1 (stereo not drawn)
    0.704, 1.9, /, /, /, -62.2, -1.7, -24.6, /
COC(=O)c1ccc(/C=N/OCC(=O)NC2CCCC(C)C2C)cc1 (stereo not drawn)
    /, -6.7, /, /, /, /, -2.1, -2.3, /
O=C(NCCCN1CCOCC1)C(=O)NCCc1ccccc1
    0.677, -4.9, 14.2, -3.9, 6.7, 1.1, -2.5, /, i
CCN(C(=O)CSc1nnc(-c2ccccc2Cl)n1N)c1c(N)n(Cc2ccccc2)c(=O)[nH]c1=O
    /, 4.0, 4.6, 10.1, -0.5, /, 0.1, /, i
Cc1ccccc1-n1cc[nH]c1=S
    0.682, 1.6, 14.7, 5.3, 3.9, 5.9, -0.8, 34.1, i
C[C@H]1C=C(C(=O)NCc2ccccc2)O[C@@H](OCc2ccc(CO)cc2)C1
    /, 1.9, -4.5, -7.2, 4.5, -0.1, -1.6, -9.1, i
CCC(C(=O)NC1CCCC1)N(Cc1ccco1)C(=O)CNS(=O)(=O)c1ccccc1 (stereo not drawn)
    0.639, -1.7, 5.0, 4.2, 2.9, 1.8, 2.5, -3.4, i
CC(Sc1nnnn1C)C(=O)Nc1nc(-c2ccc(F)c(F)c2)cs1 (stereo not drawn)
    0.701, 1.0, -29.4, -46.6, -2.7, 1.8, -1.2, 1.2, i
C[C@@H]1CN([C@H](C)CO)C(=O)CCCn2nncc2CO[C@H]1CN(C)C(=O)Nc1cccc2ccccc12
    /, /, 5.2&0.2, -3.2&-0.1, 12.8&8.2, /, 6.4, /, i
NC(c1csc(Nc2ccc(C(=O)NCCCO)cn2)n1)C1CCCCC1 (stereo not drawn)
    /, /, 8.1, 17.9, 0.9, /, 0.5, /, i
CC1CC1C(=O)N(C)CC(=O)Nc1cccc(F)c1 (stereo not drawn)
    0.674, 0.8, 19.0, 16.6, -1.6, -1.4, 0.0, /, /
CSCCC(NS(=O)(=O)c1ccccc1)C(=O)OCc1nc2ccsc2c(=O)[nH]1 (stereo not drawn)
    0.658, 5.4, 1.8, 3.8, -1.0, 0.4, 1.5, /, i
CSc1ccccc1NC(=O)CN1CCN(Cc2ccccc2)CC1
    0.653, -5.4, /, /, /, 1.4, 5.4, -12.1, /
COCCn1c(CN2CCN(C(c3ccccc3)c3ccccc3)CC2)nc2c1c(=O)n(C)c(=O)n2C
    0.689, 7.3, 5.0, 0.5, 2.2, 1.9, 1.3, /, i
O=C(CCc1nnc2ccc(N3CCC4(CC3)OCCO4)nn12)Nc1cc(F)ccc1F
    0.652, 8.4, 3.5, 3.4, 0.0, 1.7, -0.5, -7.3, i
CCn1cc(CN2CCCC(C(=O)Nc3cccc(-n4cccn4)c3)C2)c(C)n1 (stereo not drawn)
    0.703, -11.1, 6.4, 5.2, 0.2, 0.0, 4.3, -8.0, i
O=C(c1ccco1)N1CCN(c2ncnc3scc(-c4ccc(Cl)cc4)c23)CC1
    /, /, -41.2, -50.5, -8.8, /, -2.9, /, i
C[C@@]12C(=O)N(c3ccc(Br)cc3)C(=O)N1[C@@H]1c3ccccc3OC[C@@H]1[C@H]2c1ccccc1
    0.778, 3.8, 0.7, 8.6, -3.8, -5.9, 1.7, -1.6, +
OC(c1ccc(-c2ccccc2)cc1)c1ncc(-c2ccccc2)[nH]1 (stereo not drawn)
    /, /, -52.4, -75.5, -16.9, /, 2.1, /, i
COc1ccc(-n2c(=O)c3ccccc3n(Cc3ccc(F)cc3)c2=O)cc1OC
    0.649, 4.5, /, /, /, 1.4, -1.3, -8.8, /
CC(=O)Nc1cc(OC(C)=O)c2nonc2c1OC(C)=O
    0.683, 19.6, /, /, /, 7.5, -0.5, 20.6, /
O=C(N/N=C/c1cc2c(cc1Cl)OCO2)c1ccncc1
    /, -5.2, /, /, /, /, -2.8, -1.2, /
O=C(Nc1ccc(N2CCOCC2)cc1)Nc1ccc(Cl)c(Cl)c1
    0.706, 6.2, /, /, /, 5.0, 22.5, 20.0, /
CCOC(=O)CNc1nc(Cl)nc(N2CCCCC2)n1
    0.674, 11.0, 14.7, 7.4, 3.1, 4.5, 0.1, -0.1, i
COc1ccc(/C=N/NC(=O)C(=O)N2CCN(c3ccccc3OC)CC2)cc1
    /, 4.7, /, /, /, /, 2.4, 18.3, /
CCOc1ccc(NC(=O)C(=O)N/N=C/c2cccnc2)cc1
    /, -4.2, 3.2, 4.2, -10.8, /, 1.4, -4.2, i
COC(=O)c1cnn2c(C(F)(F)F)cc(-c3ccc(F)cc3)nc12
    0.709, -0.4, /, /, /, -55.4, 0.6, 9.1, /
CC1CCCCN1CCNC(=O)CN1C(=O)CSc2ccc(S(=O)(=O)N3CCCCC3)cc21 (stereo not drawn)
    0.701, -2.6, 4.1, -1.2, -0.1, 2.3, 1.6, -1.6, i
Cn1c(Cn2c(=O)sc3ccccc32)nnc1SCC(=O)N1CCCCCC1
    0.711, 3.4, 9.4, 4.6, 3.0, 1.1, 8.5, -21.6, i
COC(=O)C(CC(C)C)N(Cc1cc(OC)cc(OC)c1)S(=O)(=O)c1ccccc1Br (stereo not drawn)
    0.692, -0.3, -4.2, 0.6, -1.0, 5.7, 0.0, /, i
CC(C)(C)C1CCC2(CC1)C(C#N)=C(SCC(=O)NC1CCCCC1)NC(=O)C2C#N (stereo not drawn)
    0.701, -2.2, /, /, /, 4.5, -0.6, 11.2, /
FC(F)(F)c1cc(-c2ccc(Cl)cc2)nc(NCc2cccnc2)n1
    0.738, -14.4, 17.5, 29.6, 0.2, -9.3, -3.2, -8.7, i
COCCOc1ccc(C(F)(F)F)cc1NC(=O)COC(=O)C12CC3CC(CC(O)(C3)C1)C2
    0.716, 5.6, -2.6, -14.5, 0.1, 0.6, -2.4, -1.8, i
COc1ccc(NC(=O)CN2C(=O)CC(C)(C)S(=O)(=O)c3ccccc32)cc1
    0.71, 11.6, 5.4, 8.7, -1.4, 1.5, 3.0, -11.8, i
Cc1ccc(CNS(=O)(=O)c2ccc(Br)s2)cc1
    0.647, 1.2, -5.1, -10.4, 3.0, 0.0, 2.2, -12.7, i
CCNc1nc(NC(C)C)nc(N(C#N)CC(=O)OC)n1
    0.683, 6.9, 6.3, -6.1, -2.3, 1.6, 1.4, -1.7, i
O=C1CCC([N+](=O)[O-])C(c2cccc3ccccc23)N1 (stereo not drawn)
    0.689, -5.9, 8.2, 2.5, -1.2, 3.2, 0.8, /, i
O=C(NCc1ccc2c(c1)OCO2)c1ccc2c(c1)C(=O)N(CC1CCCO1)C2=O (stereo not drawn)
    0.741, -5.5, /, /, /, 0.9, -1.6, -0.3, /
Cc1oc(-c2ccccc2F)nc1CN1CCC(C(=O)NCc2cccs2)CC1
    0.69, -1.3, /, /, /, 7.0, 7.3, -4.6, /

Other entries
Every second line gives: E coli growth, B2AR ag, rRNA inh HTS, rRNA inh HTS OD600, rRNA inh HTS RFP, UCH37 DUB inh, HNF4A DNA FP, ALR H2O2 inh, FGF22 binding
O=C(NCCN1CCOCC1)c1cccc(S(=O)(=O)Nc2ccc(Br)cc2)c1
    0.62, -2.7, -52.0, -70.3, -11.0, 1.3, 1.8, -2.3, i
CSc1ccccc1NC(=O)CN(C)CC(=O)Nc1ccc(N2CCOCC2)cc1
    0.697, 4.9, -1.0, -12.2, -1.4, 5.7, -1.8, 37.6, i
Cc1nn(CCCC(=O)N2CCc3ccccc3C2)c(=O)c2cc3sccc3n12
    0.691, -15.5, -9.8, -10.8, -1.4, -0.2, -0.2, /, i
COc1ccccc1C(=O)Nc1ccnn1C1CCN(Cc2cc(C)c(C)cc2C)CC1
    0.714, 15.2, -11.8, -42.4, 13.1, 1.7, -0.3, 2.8, i
O=C(Nc1ccccc1)c1ccc2c(c1)OCCCO2
    0.625, -5.9, -8.2, -0.8, -6.7, 2.1, -3.8, -1.8, i
O=c1ccc2ccc(OCc3nnc(-c4ccccc4Br)o3)cc2o1
    0.672, -18.0, /, /, /, -23.0, -0.3, -9.2, /
COc1ccc(CCC(=O)Nc2nnc(C(C)(C)C)s2)cc1
    0.744, 0.3, 7.8, 12.9, 4.4, 3.7, 3.2, -4.7, i
CC(OC(=O)c1cc(=O)[nH]c2ccccc12)C(=O)Nc1ccc(Cl)cn1 (stereo not drawn)
    0.666, 2.6, 1.0, -3.9, -3.8, -17.6, 0.6, 0.8, i
COc1c(C(C)C)cc(NC(C)=O)cc1C(C)C
    0.754, 10.5, /, /, /, 5.3, 16.6, /, /
Cc1ccc(OCC(=O)N(Cc2ccccc2)c2ccccn2)cc1
    0.685, 2.6, -26.8, -37.4, -9.1, -0.7, -0.9, -9.5, i
O=[N+]([O-])c1ccc(-c2ccc(/C=N/n3cnnc3)o2)c(Br)c1
    /, 1.9, -13.0, 14.3, 1.2, /, 6.1, 38.3, i
Oc1c(Br)cc(Br)cc1/C=N/n1c(-c2ccccc2)n[nH]c1=S
    /, 12.9, -13.5, -3.8, 3.3, /, 8.0, /, i
O=C(COc1coc(CN2CCN(c3ccccc3F)CC2)cc1=O)Nc1ccccc1
    0.679, 2.3, 12.8, 8.5, -0.3, 1.2, -1.7, -0.1, i
CN(CC(=O)Nc1ccccc1C(F)(F)F)Cc1c(O)ccc2ccccc12
    0.65, 4.3, -26.7*, -19.3*, 4.7*, -0.9, -2.0, /, i
C[C@H](CO)N1C[C@H](C)[C@@H](CN(C)C(=O)c2cccc(F)c2)Oc2cc(-c3cncnc3)ccc2S1(=O)=O
    /, /, 1.0&-2.1, 15.4&1.4, 9.8&-1.8, /, 2.9, /, i
CCN(CC)CCCNc1cc2n(c(=O)n1)CCc1cc(OC)c(OC)cc1-2
    0.737, 1.1, /, /, /, -31.5, 5.8, -20.6, /
Cn1c(CO)nc2c3ccccc3ccc21
    0.63, -3.3, 10.2, 2.9, -3.5, 2.9, 1.2, -33.4, i
